# Compound activity: PubChem, National Center for Advancing Translational Sciences (NCATS)
# Menin-MLL FL inh: inhibitors of human menin-MLL interaction, wild-type MLL peptide | Fluorescence polarization, fluorescein-MLL peptide displacement from menin | FP activity change, % at 61.4 µM | 290,000 tested, under 10 active; inconclusive = falling polarisation curve, or a change in total fluorescence; inactive = total fluorescence flat and polarisation flat or rising; no compound was filed as active; the % refers to the polarisation; negative = inhibition;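 also: % of control where 0% means no effect; inhibitors lower the polarisation; unlabelled MLL peptide was the positive control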
# Sfp PPTase inh: Sfp phosphopantetheinyl transferase inhibition; Potency, µM, for the others: max response, negative = inhibition, most hits filed as inhibitors; 310,000 tested, 3.5% active; Biochemical Sfp PPTase activity, qHTS; AID 1490; Q9F4F7; active = well fitted inhibition curve with a large enough effect; inconclusive = small, poorly fitted or top-dose-only effect, or another doubt; inactive = no such curve, though single readings can be large or run the other way;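 also: the enzyme is Sfp with the accession as filed and its product quenches rhodamine fluorescence; potency is read from the fitted curve at half-maximal effect; 0% = enzyme reaction without inhibitor and -100% = no enzyme wells; top concentration of the series not given in the record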
#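 Fluorescence-quenching assay: 15 nM Sfp-PPTase preincubated 15 min at room temperature with compound, then 5 uM rhodamine-CoA and 12.5 uM BHQ-2-labelled YbbR peptide added. Fluorescence (ex 525/em 598 nm) read at start and after 30 min; difference gives rate.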
# TRPV1 potentiator: human TRPV1 potentiation | Q8NER1 | TRPV1-expressing cells, Fluo-8 calcium influx, capsaicin EC20 potentiation; host cell line not named in the record; control for the full effect not named in the record | potentiation, % at 8.33 µM | 320,000 tested, 0.02% active; active means potentiation above 80%; inconclusive means 30% to 80%; inactive means below 30%; also: 0% is about no effect
# Target sequence (Q8NER1 whole entry, looked up): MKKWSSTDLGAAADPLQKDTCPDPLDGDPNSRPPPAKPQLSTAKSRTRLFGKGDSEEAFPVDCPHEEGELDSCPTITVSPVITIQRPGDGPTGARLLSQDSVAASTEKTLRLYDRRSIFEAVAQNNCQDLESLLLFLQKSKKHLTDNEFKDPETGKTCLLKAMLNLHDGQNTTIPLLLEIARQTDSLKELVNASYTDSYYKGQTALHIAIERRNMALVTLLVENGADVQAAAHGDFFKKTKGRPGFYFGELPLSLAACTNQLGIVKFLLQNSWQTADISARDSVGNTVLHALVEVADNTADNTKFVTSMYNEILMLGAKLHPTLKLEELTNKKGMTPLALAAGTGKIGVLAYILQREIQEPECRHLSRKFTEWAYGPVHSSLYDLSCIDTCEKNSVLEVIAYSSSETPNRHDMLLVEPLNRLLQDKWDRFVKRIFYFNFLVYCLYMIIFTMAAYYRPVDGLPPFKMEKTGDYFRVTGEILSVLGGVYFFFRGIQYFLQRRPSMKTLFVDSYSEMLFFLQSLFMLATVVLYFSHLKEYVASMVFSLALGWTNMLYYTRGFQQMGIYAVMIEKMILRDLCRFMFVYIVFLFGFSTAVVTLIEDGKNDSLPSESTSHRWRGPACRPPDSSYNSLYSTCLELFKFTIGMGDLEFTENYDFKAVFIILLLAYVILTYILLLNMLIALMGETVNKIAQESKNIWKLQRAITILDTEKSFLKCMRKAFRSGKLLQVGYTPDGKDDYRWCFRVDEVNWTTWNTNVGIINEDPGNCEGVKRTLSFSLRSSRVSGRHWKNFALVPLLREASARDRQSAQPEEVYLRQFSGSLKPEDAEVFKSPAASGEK
#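 Cells expressing TRPV1 were dye-loaded with Fluo-8 and read kinetically: 10 s baseline, 3 min after compound (agonist portion), then 2 min after EC20 capsaicin (allosteric enhancer portion). Calcium-bound dye fluorescence at 480/520 nm.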
# gsp ag: gsp mutant agonism. Potency, µM (highest dose often 76.9 µM), inactives show top-dose activation (cAMP increase), most hits filed as activators. 340,000 tested, 0.13% active. gsp mutant cells, cAMP HTRF, 30 min; control for the full effect not named in the record; active = well fitted activation curve with a large enough effect; inconclusive = small, poorly fitted or top-dose-only effect, or another doubt; inactive = no such curve, though single readings can be large or run the other way; cell line not stated here;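 also: phosphodiesterase inhibitor Ro 20-1724 added with compounds to block cAMP breakdown; potency is read from the fitted curve at half-maximal effect; nearly all actives have a fitted effect of over 60% in size; about a fifth of the inactives were tested at one dose only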
#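 Cells stably selected in G418 were plated at 2000/well, grown 16-24 hr, then given compounds in DMSO with the PDE inhibitor […] (300 uM solution added) for 30 min at 37C; cAMP was read by HTRF.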
# gsp antag: gsp mutant antagonism; gsp-mutant cells, cAMP HTRF, 30 min; control for the full effect not named in the record; Potency, µM (series often up to 76.9 µM), for the others: at the top dose activity change, negative = inhibition, most hits filed as inhibitors; 340,000 tested, 0.4% active; active = falling curve of any shape with a large fitted effect; inconclusive = falling curve, mostly with a smaller effect; inactive = flat or rising curve; cell line not stated here;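 also: intracellular cAMP measured with PDE inhibitor Ro 20-1724 present during compound exposure; potency is read from the fitted curve at half-maximal effect; % is scaled to controls: 0 for no effect and ±100 for the full control effect; nearly all actives have a fitted effect of over 65% in size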
#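 HTRF cAMP read-out (cAMP-d2 plus anti-cAMP antibody-K in lysis buffer, 30 min RT). Before lysis, cells are exposed to compounds with […] for 30 min at 37C in DPBS containing Ca/Mg, BSA and Tween 20.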
# ClpP mod: qHTS Assay for Activators of ClpP | ATP-dependent Clp protease proteolytic subunit (Bacillus subtilis (strain 168)), P80244 | purified B. subtilis ClpP, FRET peptide cleavage, 20 min | Potency, µM (doses to about 57.5 µM), for the others: at the highest dose activity change, negative = active | 340,000 tested, 1.9% active; active = well fitted falling curve with a large enough effect; inconclusive = small, poorly fitted or top-dose-only effect; inactive = no such curve, though single readings can be large or run the other way; also: potency is read from the fitted curve at half-maximal effect; the source files actives as falling curves though it sought activators and does not explain the sign; nearly all actives have a fitted effect of over 65% in size; many hits overshoot -100%
# Target sequence (P80244 whole entry, looked up): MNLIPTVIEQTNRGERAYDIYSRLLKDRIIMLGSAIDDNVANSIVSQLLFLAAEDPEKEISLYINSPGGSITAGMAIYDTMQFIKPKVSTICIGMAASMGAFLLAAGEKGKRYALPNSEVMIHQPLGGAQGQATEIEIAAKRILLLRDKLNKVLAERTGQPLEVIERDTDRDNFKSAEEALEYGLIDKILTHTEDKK
#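 ClpP 10 microg/mL final, pH 8 Tris/KCl buffer with BSA, glycerol, Tween-20; compound pinned in; FRET-FV substrate; RT 20 min; Ex320/Em430; ΔFRET vs ADEP 5.8 microM, DMSO, no enzyme.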
# TRPML1 blocker: inhibitors of human TRPML1 channel. Q9GZU1. TRPML1-inducible cells, Ca2+ dye fluorescence, FDSS; active compounds read low; inhibition of EC80 agonist-evoked calcium signal. activity change, negative = inhibition, % (concentration not given with the values). 390,000 tested, 0.02% active. AID 624415; in the data active means activity change below about -50%; inconclusive means about -30% to -50%; inactive means above about -30%;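 also: stimulus is agonist 54-4 at its EC80 concentration; % is scaled to controls: 0 for no effect and ±100 for the full control effect; the text of the record puts the active cut at -80%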
#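 TRPML1-DL cells, Tet-induced overnight (~16 h, 37 °C) at 1,500 cells/well, were loaded with Ca8 no-wash dye plus quencher for 45-90 min at room temperature. Compounds were pinned during FDSS kinetic reading; agonist 54-4 at EC80 (4 uM final) then added.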
# The depositor's hits bear a star; ? = inconclusive; . = not tested or not shown; & = joins results of further samples; [ ] = remark or other dose.
(1) CCOc1ccc(NC(=O)N2CCCC2C(=O)NCC2CCCO2)cc1 (stereo not given)
(2) O=C1C2=C(CCCC2)C(=O)N1CNc1ccccc1
(3) O=c1[nH]c(-c2ccccc2)nc(-c2ccccc2)c1Cl
(4) Cn1nc(-c2ccccc2)cc1NC(=O)c1cccs1
(5) O=C(CSc1nccn1-c1ccccc1)N1CCc2ccccc21
(6) CCCCN1C(=O)C(=O)N(CC(=O)c2cc(C)n(C3CC3)c2C)C1=O
(7) COc1ccc(OCC(=O)Nc2ccc(C)cc2)cc1
(8) CCOC(=O)c1c(/N=C/c2cccc([N+](=O)[O-])c2O)sc(C)c1C
(9) Cc1ccc2c(c1)C(=O)CC(c1ccc3c(c1)OCCO3)O2 (stereo not given)
(10) CC(C)(C)n1nnnc1CN1CCN2CCCC2C1 (stereo not given)

Compound	1	2	3	4	5	6	7	8	9	10
Menin-MLL FL inh	-2.2	2.9	.	2.1	-0.2	.	2.1	?	0.6	-1.5
Sfp PPTase inh	9%	6%	.	4%	4%	.	16%	40µM*	-9%	8%
TRPV1 potentiator	20	1	.	-21	-9	-14	-8	10	-3	-3
gsp ag	16%	1%	20%[15.4 µM]	-5%	-9%	23%[15.4 µM]	10%	0%	-1%	-35%[inhibitor]
gsp antag	14%	4%	0%	-6%	5%	3%	-3%	1%	-14%	-7%
ClpP mod	.	-0.4%	-0.5%	-0.1%	3.3%	0.0%	-1.0%	?	-1.0%	-1.5%
TRPML1 blocker	-10	0	13	-10	8	6	14	-5	-11	7

# Record cards, from the list above:
# Results for CCOC(=O)c1c(/N=C/c2cccc([N+](=O)[O-])c2O)sc(C)c1C = Menin-MLL FL inh = ?; Sfp PPTase inh = 40µM*; TRPV1 potentiator = 10; gsp ag = 0%; gsp antag = 1%; ClpP mod = ?; TRPML1 blocker = -5
# Results for Cn1nc(-c2ccccc2)cc1NC(=O)c1cccs1 = Menin-MLL FL inh = 2.1; Sfp PPTase inh = 4%; TRPV1 potentiator = -21; gsp ag = -5%; gsp antag = -6%; ClpP mod = -0.1%; TRPML1 blocker = -10

# Looked up one by one from above:
(5) O=C(CSc1nccn1-c1ccccc1)N1CCc2ccccc21
(4) Cn1nc(-c2ccccc2)cc1NC(=O)c1cccs1
(9) Cc1ccc2c(c1)C(=O)CC(c1ccc3c(c1)OCCO3)O2 (stereo not given)

Compound	5	4	9
Menin-MLL FL inh	-0.2	2.1	0.6
Sfp PPTase inh	4%	4%	-9%
TRPV1 potentiator	-9	-21	-3
gsp ag	-9%	-5%	-1%
gsp antag	5%	-6%	-14%
ClpP mod	3.3%	-0.1%	-1.0%
TRPML1 blocker	8	-10	-11

# Going on with the list.
(11) O=C(Cc1ccsc1)NNC(=O)c1cccc(Cl)c1
(12) CN(C)C(=O)COc1ccc2cc(-c3ccccc3)c(=O)oc2c1
(13) CN(C)CCn1c(COc2ccccc2)nc2ccccc21
(14) CCCCOc1ccc(CN2CCCCC2)cc1
(15) CN(Cc1cccc2cnccc12)C(=O)CCc1nnc(CCc2ccccc2)o1
(16) CC(C)c1nc2cc(C(=O)N(C)C3CCOCC3)ccc2o1
(17) COc1ccc([C@H]2N[C@]3(CCCN(Cc4ccco4)C3=O)[C@H]3C(=O)N(Cc4ccccc4)C(=O)[C@@H]23)cc1
(18) CN(C)S(=O)(=O)c1c(Cl)cccc1Cl
(19) COC(=O)CCCCCN1C(=O)NC(c2ccc(-c3ccccc3)cc2)C(C(=O)OCc2ccccc2)=C1C (stereo not given)
(20) O=C(Nc1nccs1)c1ccc2ccccc2c1

Compound	11	12	13	14	15	16	17	18	19	20
Menin-MLL FL inh	.	0.6	.	5.0	-1.4	.	.	-0.4	3.9&4.5	-2.9
Sfp PPTase inh	14%	7%	.	-14%	-8%	12%	.	-14%	24%&9%	5%
TRPV1 potentiator	8	4	.	8	9	5	.	5	7	-10
gsp ag	17%	6%	-43%[inhibitor]	2%	-6%[15.4 µM]	13%	?	-3%	-44%[inhibitor]	2%
gsp antag	3%	-1%	-9%	6%	-30%	13%	.	5%	-10%	1%
ClpP mod	-4.0%	-64%	1.8%	0.9%	.	0.9%	-1.9%	-0.2%	-16%	1.3%
TRPML1 blocker	4	-15	28	-10	-8	1	24	2	2	5

(21) Cc1csc(NC(=O)CN2C(=O)c3ccccc3C2=O)c1C(N)=O
(22) Cc1cc(NC(=O)c2nn(C)c(C)c2Br)no1
(23) CNCCCOc1cc(C)cc(C)c1C
(24) Nc1o[nH]c(=O)c1Cc1ccccc1
(25) O=C(NC1CCCCC1)c1cnn2c(C(F)(F)F)cc(-c3ccco3)nc12
(26) COCCNc1nnc(SCC(=O)NNC(=O)c2ccccc2)s1
(27) CCOC(=O)n1c(=O)n(Cc2ccc(F)cc2)c2ccccc21
(28) Cc1cc(N2CCN(S(=O)(=O)c3ccc(Br)cc3)CC2)n2ncnc2n1
(29) Cc1ccc(-c2c(C(=O)N/N=C/c3sccc3C)nnn2-c2nonc2N)cc1
(30) COc1ccc(-c2noc(Cn3cc(S(=O)(=O)N4CCCC4)ccc3=O)n2)cc1

Compound	21	22	23	24	25	26	27	28	29	30
Menin-MLL FL inh	4.2	.	-4.4	-2.7	-1.6	-4.0	0.7	-3.8	.	.
Sfp PPTase inh	3%	17%	?	10%	-24%	-16%	14%	16%	17%	.
TRPV1 potentiator	20	4	4	-9	-1	4	-3	5	-18	7
gsp ag	-14%	?	-43%[inhibitor]	6%	10%	-3%	0%[15.4 µM]	6%[15.4 µM]	18%	4%
gsp antag	3%	-9%	-5%	-1%	15%	6%	-1%	-8%	-13%	7%
ClpP mod	0.0%	-0.9%	.	-1.7%	-24%	0.7%	.	.	-20%	17%
TRPML1 blocker	-18	-6	21	6	20	-4	9	1	-6	-8

(31) Cc1ccc(-n2c(=O)[nH]c3c(C(N)=O)nc(-c4ccc(C)o4)nc32)cc1
(32) O=C(CN(C(=O)c1csnn1)c1ccccc1F)NCc1ccc2c(c1)OCO2
(33) CCCCOP(=O)(OCCCC)C1(NS(=O)(=O)c2ccccc2)C=CC(=O)c2ccccc21 (stereo not given)
(34) COc1ccc(N(CCCN2C(=O)c3cccc4cccc(c34)C2=O)C(=O)c2cccnc2)cc1
(35) Cc1nnc(SCCn2c(N3CCCC(C)C3)nc3c2c(=O)[nH]c(=O)n3C)s1 (stereo not given)
(36) CC1=CC(=O)C(C(C)C)=C/C1=C(\c1cc(C(C)C)c(OP(=O)(O)O)cc1C)c1ccccc1C(=O)O
(37) CC1CCN(c2nc3c(c(=O)n(C)c(=O)n3C)n2CCSc2ncccn2)CC1
(38) CCOc1ccc(OCC)c(NC(=O)CN2CCN(c3cccc(C)c3C)CC2)c1
(39) CCOC(=O)C1=C2c3cc(OC)c(OC)cc3CC(C)(C)N2C(=O)C1=O
(40) O=C(O)Cc1ccc(NC(=O)c2ccc3c(c2)C(=O)N(Cc2ccco2)C3=O)cc1

Compound	31	32	33	34	35	36	37	38	39	40
Menin-MLL FL inh	1.6	-0.9	2.5	-3.5	2.0	2.6	1.5	-0.3	0.6	.
Sfp PPTase inh	45µM*	-4%	2%	-2%	18%	7%	13%	?	-2%	6%
TRPV1 potentiator	4	1	-19	-13	-17	-6	6	9	-3	?
gsp ag	-8%	-6%[15.4 µM]	3%	-7%[15.4 µM]	-13%	4%[15.4 µM]	29%	-13%	15%	-14%[15.4 µM]
gsp antag	2%	19%	-10%	6%	2%	-16%	10%	5%	7%	2%
ClpP mod	-4.8%	.	0.7%	.	1.1%	1.2%	2.6%	0.7%	2.4%	-1.1%
TRPML1 blocker	-1	-7	10	0	6	-10	4	35	6	14

(41) CC(=O)N1CCCc2cc(S(=O)(=O)NC(C(=O)NC3CCCCC3)C(C)C)ccc21 (stereo not given)
(42) CCc1cc(C(=O)O)c(NC(=O)/C=C/c2ccc(OC)cc2)s1
(43) CCCCNc1c(-c2ccc(OC)c(SC(C)CC)c2)nc2ccc(C)cn12 (stereo not given)
(44) Cc1ccc(C(=O)N(CC(=O)NC2CCCCC2)c2ccccc2C)s1
(45) CCOc1ccc2[nH]c3c(N4CCN(C(=O)c5ccco5)CC4)ncnc3c2c1
(46) CN(CC(=O)N1CCN(C2CCCCC2)CC1)S(=O)(=O)c1cccc2nsnc12
(47) CCN1C[C@@H]2[C@@H]3C(=O)N(Cc4ccccc4)C(=O)[C@@H]3[C@](Cc3ccccc3)(C1=O)N2C(=O)c1ccc(C(F)(F)F)cc1
(48) CCN(C(=O)COC(=O)CCCc1c[nH]c2ccccc12)c1c(N)n(Cc2ccccc2)c(=O)[nH]c1=O
(49) CN(CCOc1ccc(Cl)cc1)C(=O)c1cc(S(=O)(=O)N2CCOCC2)ccc1N1CCCC1
(50) CC(C)CCNC(=O)c1cc(-c2ccncc2)nc2ccc(S(=O)(=O)N3CCOCC3)cc12
(51) CCCS(=O)(=O)N1CCN(C(=O)COc2ccc(OC)cc2)CC1
(52) COCC(C)n1c(SCC(=O)NC(=O)NC2CCCC2)nc2ccccc2c1=O (stereo not given)

Compound	41	42	43	44	45	46	47	48	49	50	51	52
Menin-MLL FL inh	0.4	0.2	.	8.0	-1.0	3.2	.	.	.	5.7	3.1	.
Sfp PPTase inh	-2%	14%	.	15%	11%	11%	.	.	.	-6%	16%	.
TRPV1 potentiator	9	26	.	-12	.	9	.	.	-7	8	-22	-9
gsp ag	-5%[15.4 µM]	-6%	.	-38%[inhibitor]	?	-2%	14%	7%	-2%	-26%	13%	6%
gsp antag	12%	?	28µM*	-13%	?	3%	8%	12%	?	-20%	10%	-13%
ClpP mod	16µM*	2.1%	3.6%&4.8%	-2.1%	.	-1.2%	-9.2%	0.1%	-1.9%	1.1%	-0.9%	-2.3%
TRPML1 blocker	1	.	23	2	2	-3	-8	-4	18	7	-7	21

# An unsorted share of the library. Share with any hit: about 4.9%.
